eIF4H inh = human eIF4H binding inhibitors, primary screen, translation initiation inhibitor project, biochemical, uHTS, fluorescence polarization. inhibition, % at 35 µM. AID 2012, 2009. 290,000 tested, 0.94% active. eIF4H fluorescence polarization binding assay. Eukaryotic translation initiation factor 4H (Homo sapiens), Q15056;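 active means 50% or more with normal probe brightness, or confirmed in later tests; about a fifth of its hits are not listed in these tables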;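 further: calls also rest on retests at 20 µM and on dose response follow-up; 0% = protein and probe with vehicle and 100% = probe without protein; strong numbers were not always called active; many hits fall short of the cut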
HIV Env fusion = inhibitors of HIV-1 Env-driven cell-cell fusion, primary screen, HeLa-JRFL effector, CEM21 target cells, luciferase. AID 651610, 2012. inhibition, % at 12.3 µM. 360,000 tested, 1.1% active;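 active means mean replicate inhibition score of at least 50 and every replicate individually at or above 50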;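 further: 0% = plate neutral controls and 100% = maraviroc near 300 nM; one replicate is shown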
Rce1 inhib = yeast Rce1p protease inhibitors, primary screen, biochemical, fluorescence, cell-free homogeneous; yeast membranes, quenched prenylated peptide cleavage fluorescence; calls only; 290,000 tested, 0.27% active; AID 2563, 2010;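 active means fall in fluorescence gain of 50% or more versus controls, with final raw signal at or below 3038400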;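 further: plate controls were neutral control wells for no effect and wells lacking membranes for full effect; tested at 10 µM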
PABP polyA inh = PABP poly(A) RNA binding inhibitors, primary screen, biochemical, fluorescence polarization, uHTS | inhibition, % at 35 µM | 290,000 tested, 1% active | AID 2014, 2009;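 active means 50% or more with normal probe brightness, or confirmed in later tests; about a fifth of its hits are not listed in these tables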;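 further: calls also rest on retests at 20 µM and on dose response follow-up; controls were probe without protein and protein plus probe with vehicle; some compounds called inactive have numbers as strong as hits; many hits fall short of the cut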
Target sequence (P11940 whole entry, looked up): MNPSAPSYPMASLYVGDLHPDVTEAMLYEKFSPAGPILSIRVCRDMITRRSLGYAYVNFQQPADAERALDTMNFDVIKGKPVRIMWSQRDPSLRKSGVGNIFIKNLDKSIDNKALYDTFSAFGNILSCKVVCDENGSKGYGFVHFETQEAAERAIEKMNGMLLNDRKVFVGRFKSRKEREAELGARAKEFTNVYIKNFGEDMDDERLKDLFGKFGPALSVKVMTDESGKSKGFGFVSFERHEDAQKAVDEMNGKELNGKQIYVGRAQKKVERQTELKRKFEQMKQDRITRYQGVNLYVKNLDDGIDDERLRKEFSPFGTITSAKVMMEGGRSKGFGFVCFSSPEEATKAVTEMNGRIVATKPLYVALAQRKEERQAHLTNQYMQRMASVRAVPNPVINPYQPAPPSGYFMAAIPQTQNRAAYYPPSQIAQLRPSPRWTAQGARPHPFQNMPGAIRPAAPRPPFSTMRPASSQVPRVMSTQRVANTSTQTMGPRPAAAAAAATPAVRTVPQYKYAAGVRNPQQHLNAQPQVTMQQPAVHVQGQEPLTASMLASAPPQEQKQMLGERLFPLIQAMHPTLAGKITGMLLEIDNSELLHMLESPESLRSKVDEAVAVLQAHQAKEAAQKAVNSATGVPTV
CSC inhib = cancer stem cell viability inhibitors, primary screen, luminescence; cancer stem cell-like cells viability; inhibition, % at 7.5 µM; 300,000 tested, 1.1% active;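 active means mean at 75% or more and at least half the replicates too; tested in HMLE shEcad cells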;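 further: 0% = median of negative and 100% = median of positive control wells; the first replicate is given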
UUG fidelity = modulators of yeast start codon fidelity, primary screen, whole organism, S. cerevisiae, single point, plate reader | S. cerevisiae UUG-firefly luciferase reporter, luminescence/redox ratio | activity score, % at 18.7 µM | 350,000 tested, 0.13% active;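 active means replicate mean at a twofold rise or more, about +100% in these data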;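 further: firefly luciferase made from a UUG start codon reports start codon fidelity; reporter light over untreated wells divided by growth signal over untreated wells; some hits fall short of that in this replicate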
MT1-MMP act inh = blockers of MT1-MMP proenzyme processing, primary screen, HT1080 RFP-PRO-GFP cells, GFP/RFP fluorescence. 360,000 tested, 0.061% active. AID 651647, 2012. GFP/RFP ratio fluorescence, overnight; percent of plate control window, DMSO zero. GFP/RFP ratio change, % at 20 µM;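 active means GFP/RFP ratio change of at least 30% with cell ATP level not reduced by more than half and red fluorescence within 50% of control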; further: strong numbers were not always called active
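Assay system: RFP-PRO-GFP reporter HT1080 cells; read-out basis: GFP/RFP fluorescence ratio; benchmarks: DMSO wells and RFP-L50D-GFP cells; doses: 20 µM single dose, 1% DMSO; schedule: overnight cell settling, then overnight compound exposure, 37 °C, 5% CO2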
MT1-MMP act inh RFP = recorded beside MT1-MMP act inh, whose call it bears; RFP signal change, %; measured here: RFP expression control read;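 0 = vehicle wells; hits needed this value within 50% of zero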
* = called active by the depositor; i = inactive; . = not tested or not shown; + = active, no number.

SMILES | eIF4H inh | HIV Env fusion | Rce1 inhib | PABP polyA inh | CSC inhib | UUG fidelity | MT1-MMP act inh | MT1-MMP act inh RFP
O=C(COc1ccccc1)N1CCN(C(=O)Cc2ccccc2)CC1 | 5.2 | . | . | 0.1 | 5.8 | -4.1 | -0.9 | 3.1
COc1ccc(-c2cc3cc(OC)c(OC)cc3c(C)n2)cc1 | 1.4 | -27.6 | i | 7.3 | . | -4.4 | 0.8 | 1.0
CC(=O)Nc1nc(CCN2C(=O)c3ccccc3C2=O)cs1 | 5.8 | -33.5 | i | -11.5 | 5.1 | . | 0.2 | -2.6
Cc1ccc(/C=N/NC(=O)NC23CC4CC(CC(C4)C2)C3)o1 | 1.3 | 15.6 | i | 8.2 | -3.2 | 7.1 | 1.1 | -4.4
Cc1nc2ccccc2nc1N1CCCC1 | 0.2 | 2.7 | i | -6.5 | -1.4 | -20.6 | 3.6 | 8.8
COc1ccc(/C=C2\N=C(SC)N(c3ccccc3OC)C2=O)cc1 | 3.3 | 36.9 | i | -12.7 | 71.3 | -22.7 | -3.7 | -8.6
Brc1ccc(-c2csc(N3CCc4ccccc4C3)n2)cc1 | 0.2 | 1.3 | i | 1.9 | 4.2 | -11.0 | -4.3 | 1.2
Cc1ccc(C(=O)NCCNC(=O)c2ccco2)cn1 | -6.1 | -4.6 | i | 0.9 | -12.4 | -25.2 | 0.7 | 2.3
COc1cc(CN(CCN(C)C)Cc2ccccc2)ccc1OCc1ccccc1 | -1.0 | 10.1 | i | 8.5 | 29.9 | -7.1 | -3.3 | -2.8
COC(=O)[C@@]12CCCCN1[C@H](c1ccc(-c3ccccc3)cc1)[C@@H]1C(=O)N(C)C(=O)[C@@H]12 | . | 10.1 | i | . | 17.4 | -14.8 | 2.8 | -4.4

The last 2 entries of the section above come first, to join the parts:
SMILES | eIF4H inh | HIV Env fusion | Rce1 inhib | PABP polyA inh | CSC inhib | UUG fidelity | MT1-MMP act inh | MT1-MMP act inh RFP
COc1cc(CN(CCN(C)C)Cc2ccccc2)ccc1OCc1ccccc1 | -1.0 | 10.1 | i | 8.5 | 29.9 | -7.1 | -3.3 | -2.8
COC(=O)[C@@]12CCCCN1[C@H](c1ccc(-c3ccccc3)cc1)[C@@H]1C(=O)N(C)C(=O)[C@@H]12 | . | 10.1 | i | . | 17.4 | -14.8 | 2.8 | -4.4
COC(=O)c1ccc(S(=O)(=O)NNC(=O)COc2ccc(C)cc2)cc1 | 6.7 | -22.1 | i | 0.2 | 7.8 | 0.1 | 1.8 | 0.1
COc1ccccc1NC(=O)CN1C(=O)CSC(C)C1=O (stereo not drawn) | -4.5 | 18.4 | . | 2.5 | -10.6 | -0.9 | 5.0 | 3.9
CCOC(=O)c1cnc2ccc(C)cc2c1Nc1ccc(N2CCOCC2)cc1 | 0.7 | -25.6 | i | 3.0 | -0.2 | -7.4 | -11.5 | -13.3
Cc1nc2ccc(-c3ccccc3)cc2o1 | -2.8 | . | i | 46.0 | 2.1 | -15.7 | 2.6 | 6.7
C/C(=N\NS(=O)(=O)c1ccccc1)c1ccc2c(c1)OCO2 | 6.8 | -5.3 | i | 33.6 | -4.6 | -29.6 | 0.8 | 2.4
CCCCN(C(=O)c1cccc(C)c1)c1c(N)n(CCC)c(=O)[nH]c1=O | -10.3 | 16.3 | i | 2.4 | -4.1 | -12.3 | 3.0 | 3.9
CNS(=O)(=O)c1cn(CC(=O)NCc2ccc(N(C)C)cc2)cc1S(=O)(=O)NC | -13.9 | -14.5 | i | 6.6 | 3.6 | -11.1 | 1.7 | 2.4
CCOc1ccccc1N(CC(=O)NC1CCCCC1)C(=O)CCCC(=O)Nc1ccccn1 | 4.4 | . | i | 9.1 | . | -3.7 | 0.2 | 0.1
COc1ccc(-n2c(-c3ccc(F)cc3)cnc2SCC(=O)NCc2ccco2)cc1 | 3.0 | . | i | 5.0 | -2.6 | . | -0.9 | -3.3
COc1ccc(/C=C2\SC(=S)N(CC(=O)Nc3nnc(C)s3)C2=O)cc1 | 3.7 | 8.5 | i | 11.8 | -3.2 | -15.7 | -0.4 | 3.3
COc1cccc(C2CC(c3cccs3)=NN2C(=O)CSc2nc3c(cnn3-c3ccc(F)cc3)c(=O)[nH]2)c1OC (stereo not drawn) | -0.9 | . | + | 4.5 | 118.2* | -1.2 | -1.6 | -8.8
Cc1cc(C(=O)NC2CC(C)(C)Cc3c2cnn3-c2ccccc2)n[nH]1 (stereo not drawn) | -0.6 | -28.5 | i | -7.4 | 1.1 | 0.8 | -4.7 | -3.8
COc1cc(/C(O)=C(\C#N)c2nc3ccccc3[nH]2)cc(OC)c1OC | 1.2 | -55.7 | i | -4.7 | -10.1 | -9.6 | 0.0 | 2.3
CC(=O)c1ccc(OCCN2CCOCC2)cc1 | 10.3 | -49.4 | i | 30.3 | -15.6 | -8.0 | -0.5 | 3.3
COc1ccc(CNC(=O)C2CCCN2C(=O)Nc2cccc(Cl)c2)cc1 (stereo not drawn) | . | -2.5 | . | . | . | -19.4 | -1.9 | -0.7
COC(=O)c1c(NC(=S)Nc2ccc(C(=O)N3CCOCC3)cc2)sc2c1CCC2 | -1.2 | -2.6 | i | -12.3 | -1.1 | -8.1 | -5.8 | -1.2
COc1ccc(CN2CCN(C(=O)c3ccc(CNS(=O)(=O)c4ccc(C)cc4)cc3)CC2)c(OC)c1OC | -3.9 | -0.1 | i | -2.6 | -28.8 | -4.6 | 2.2 | -10.3
CCn1c(-c2ccc(C)cc2)nn(CC(=O)NCCc2ccccc2)c1=S | -1.1 | 76.5* | i | -0.5 | 18.7 | . | -9.2 | -12.9
COc1ccccc1N1CCN(C(=O)c2cc(N3C(=O)C4C5CCC(C5)C4C3=O)ccc2Cl)CC1 (stereo not drawn) | 5.3 | 6.4 | i | -13.1 | 0.5 | . | -1.2 | -6.0
COc1ccccc1CNS(=O)(=O)c1ccc(-c2cnc(C3CC3)o2)cc1 | -3.1 | -107.3 | i | 4.8 | 64.5 | -5.5 | -2.0 | -13.1
O=C(NCC1CCCN1S(=O)(=O)c1ccccc1)C(=O)NC1CC1 (stereo not drawn) | . | 0.8 | i | . | 17.5 | -23.1 | 0.6 | 0.9
O=C(Nc1ccc(-c2ccccc2)cc1)c1ccccc1 | -4.2 | 5.1 | i | -2.1 | -8.6 | -5.7 | -3.6 | -1.5
COc1ccc(NC2CCCN(C(=O)CSc3ccccc3)C2)cc1 (stereo not drawn) | 1.4 | 5.7 | i | 4.6 | -7.6 | -12.0 | -3.8 | -0.2
COC(=O)CSc1nc2c(cnn2-c2ccc(F)cc2)c(=O)[nH]1 | 0.9 | 3.4 | i | -3.4 | -9.8 | -3.9 | 0.1 | 0.2
Cn1c(=O)oc2cc(S(=O)(=O)NCCc3ccccc3)ccc21 | -9.0 | . | i | -5.6 | -4.3 | -13.0 | 0.1 | 6.5
O=C(Nc1ccc(NC(=O)C2CC2)nc1)c1cccnc1 | 1.9 | . | i | 1.1 | 3.5 | -2.4 | -1.8 | -0.5
CSCc1cc(N2CCCC2)nc(-c2ccccc2)n1 | 1.3 | 9.6 | i | 0.6 | -11.1 | . | 0.5 | 2.5
CC(=O)Nc1ccc(OCC(O)CNC2CCCC2)cc1 (stereo not drawn) | 4.5 | 1.4 | i | -1.7 | -7.2 | . | 0.3 | 2.7
O=C(C[n+]1ccccc1)N/N=C/c1ccccc1Cl | . | . | . | . | -14.4 | -11.5 | 4.0 | 5.1
COc1cccc(CC2(CO)CCCN(Cc3ccc(OC(F)F)cc3)C2)c1 (stereo not drawn) | . | 3.6 | i | . | 27.5 | 8.7 | 0.3 | 2.2
O=C(Nn1cnc2ccccc2c1=O)c1ccccc1 | 7.0 | -29.7 | i | 1.7 | 8.1 | . | 8.2 | 1.8
CCn1c(SCC(=O)Nc2nnc(C)s2)nnc1C(C)NC(=O)c1ccccc1 (stereo not drawn) | -4.1 | 5.9 | i | -14.7 | 10.1 | 15.2 | 1.4 | 0.4
COc1ccc(-c2nnc(NC(=O)c3ccc(S(=O)(=O)N4CCCc5ccccc54)cc3)o2)cc1 | 15.7 | . | i | 8.8 | . | -31.1 | -0.8 | -4.3
Cc1ccc(C)c(OCCC(=O)OCC(=O)Nc2cccnc2Cl)c1 | 4.8 | -204.1 | i | -1.1 | -16.6 | 14.8 | -1.5 | 2.6
COc1ccc(-c2n[nH]c(=S)n2-c2ccccc2C)cc1OC | 21.8 | 5.1 | i | -4.9 | 26.5 | -2.9 | -3.4 | 1.3
COc1ccc(N2CCN(C(=O)c3ccc(CNS(=O)(=O)c4ccc(C)cc4)cc3)CC2)cc1 | -2.5 | 1.5 | i | -1.3 | 19.6 | 2.0 | -1.3 | -24.5
C[C@@H]1CCC(=O)N(CC[C@H](Oc2ccccc2)c2ccccc2)CC1 | -8.3 | 24.3 | i | -10.2 | -7.2 | 8.9 | 1.2 | 0.4
CCCn1nnnc1NCc1cccc(OC)c1OCC | -3.5 | -14.9 | i | -5.2 | -18.7 | 0.7 | 6.9 | 2.9
Cc1cccc2sc(N(CCCN(C)C)C(=O)c3ccc(S(=O)(=O)N4CCc5ccccc5C4)cc3)nc12 | -7.1 | -0.8 | i | -27.5 | 27.6 | 17.4 | -4.9 | 0.6
NC(=O)OCC(O)COc1ccc(Cl)cc1 (stereo not drawn) | . | . | . | . | -8.3 | -1.6 | 2.0 | 3.1

Entries shown so far that contain a furan ring, fused or not:
SMILES | eIF4H inh | HIV Env fusion | Rce1 inhib | PABP polyA inh | CSC inhib | UUG fidelity | MT1-MMP act inh | MT1-MMP act inh RFP
Cc1ccc(/C=N/NC(=O)NC23CC4CC(CC(C4)C2)C3)o1 | 1.3 | 15.6 | i | 8.2 | -3.2 | 7.1 | 1.1 | -4.4
Cc1ccc(C(=O)NCCNC(=O)c2ccco2)cn1 | -6.1 | -4.6 | i | 0.9 | -12.4 | -25.2 | 0.7 | 2.3
COc1ccc(-n2c(-c3ccc(F)cc3)cnc2SCC(=O)NCc2ccco2)cc1 | 3.0 | . | i | 5.0 | -2.6 | . | -0.9 | -3.3

(more compounds)
SMILES | eIF4H inh | HIV Env fusion | Rce1 inhib | PABP polyA inh | CSC inhib | UUG fidelity | MT1-MMP act inh | MT1-MMP act inh RFP
CCn1ccnc1CN1CCCC(CO)(Cc2cccc(OC)c2)C1 (stereo not drawn) | 2.0 | -0.7 | i | 0.3 | 3.8 | -22.8 | -5.9 | 1.1
O=C(O)/C=C/C(=O)N1N=C(c2ccco2)CC1c1ccco1 (stereo not drawn) | -17.5 | 8.6 | i | 10.0 | -9.7 | -20.0 | 3.8 | 8.6
O=C(Nc1cccc(-c2cn3ccccc3n2)c1)c1cnccn1 | 1.3 | -42.1 | i | 9.8 | 1.0 | -14.4 | 29.3 | 7.0
Cc1ccc(N(Cc2ccc(C(=O)Nc3ccccc3C(=O)NCc3ccco3)cc2)S(C)(=O)=O)cc1C | -8.8 | . | i | -3.7 | 11.1 | -2.1 | 5.8 | -2.2
Cc1nnc(SCc2cc(=O)[nH]c(/N=C(\N)Nc3ccccc3)n2)s1 | -4.7 | 2.7 | i | 1.0 | 4.5 | -0.6 | -2.4 | -1.0
O=C(Nc1ccc(F)cc1)NC1CCN(Cc2c(F)cccc2Cl)CC1 | 2.6 | 11.9 | i | -4.0 | -11.7 | -14.2 | 3.5 | -8.2
O=C(CSc1nc2[nH]ncc2c(=O)n1-c1ccccc1)NCc1cccs1 | -3.3 | 13.0 | . | 8.0 | 0.5 | . | -0.3 | 0.3
COc1cccc(/C=N/NC(=O)CCc2ccccc2)c1 | -2.8 | . | i | 0.9 | -2.4 | -11.6 | 3.5 | 6.3
CCOc1cc(N2CCOCC2)c(OCC)cc1NC(=O)C1CC(=O)N(c2ccc(C)cc2)C1 (stereo not drawn) | . | 31.2 | . | . | 0.8 | -19.7 | -1.1 | -2.6

Compound activity as filed in PubChem BioAssay.
